Menin MLL FP FL: qHTS Assay for Inhibitors Targeting the Menin-MLL Interaction in MLL Related Leukemias: Competition With Fluorescein Labeled MLL-derived Peptide | Fluorescence polarization, fluorescein-MLL peptide displacement from menin | FP activity change, % at 61.4 µM | 290,000 tested, under 10 active | AID 1766, 2009; inconclusive = falling polarisation curve, or a change in total fluorescence; inactive = total fluorescence flat and polarisation flat or rising; no compound was filed as active; the % refers to the polarisation; negative = inhibition;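 note: % of control where 0% means no effect; inhibitors lower the polarisation; unlabelled MLL peptide was the positive control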
gsp antag: qHTS for Antagonists of gsp, the Etiologic Mutation Responsible for Fibrous Dysplasia/McCune-Albright Syndrome: qHTS; 340,000 compounds, 0.4% hits; Potency, µM (titrated, usually from 76.9 µM), for inactives: top-dose activity change, negative = inhibition, usual class: inhibitors; gsp-mutant cells, cAMP HTRF, 30 min; control for the full effect not named in the record; AID 624288, 2012; active = falling curve of any shape with a large fitted effect; inconclusive = falling curve, mostly with a smaller effect; inactive = flat or rising curve; cell line not stated here;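 note: intracellular cAMP measured with PDE inhibitor Ro 20-1724 present during compound exposure; potency is the fitted concentration of half-maximal effect; % is set by controls: 0 for no effect and ±100 for the full control effect; nearly all actives have a fitted effect of over 65% in size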
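HTRF cAMP read-out (cAMP-d2 plus anti-cAMP antibody-K in lysis buffer, 30 min RT). Before lysis, cells are exposed to compounds with […] for 30 min at 37C in DPBS containing Ca/Mg, BSA and Tween 20.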
D2 PAM: Beta-Arrestin HTS for Positive Allosteric Modulators of the Human D2 Dopamine Receptor: Potentiators. D(2) dopamine receptor (Homo sapiens), P14416. DiscoveRx D2 beta-arrestin cells, luminescence, 90 min; 100% = 57 uM dopamine signal. potentiation, % (no concentration beside the values). 360,000 compounds, 0.23% hits. AID 624464, 2012; active = potentiation of 50% or more; inconclusive = 30% to 50%; inactive = 30% or less;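 note: compound concentration not given in the record; tested on top of an EC20 dose of dopamine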
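D2 cells co-treated with compound plus 50 nM dopamine (EC20) for 90 min at 37 deg C to detect potentiation. Beta-arrestin recruitment was read as enzyme-fragment luminescence after 1 h at ambient temperature. Full response was set by 57 uM dopamine.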
gsp agonist: qHTS for Agonist of gsp, the Etiologic Mutation Responsible for Fibrous Dysplasia/McCune-Albright Syndrome: qHTS; gsp mutant cells, cAMP HTRF, 30 min; control for the full effect not named in the record; Potency, µM (doses to about 76.9 µM), without a hit: at the highest dose activation (cAMP increase), usual class: activators; 340,000 compounds, 0.13% hits; active = well fitted activation curve with a large enough effect; inconclusive = small, poorly fitted or top-dose-only effect, or another doubt; inactive = no such curve, though single readings can be large or run the other way; cell line not stated here;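 note: phosphodiesterase inhibitor Ro 20-1724 added with compounds to block cAMP breakdown; potency is the fitted concentration of half-maximal effect; nearly all actives have a fitted effect of over 60% in size; about a fifth of the inactives were tested at one dose only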
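Cells stably selected in G418 were plated at 2000/well, grown 16-24 hr, then given compounds in DMSO with the PDE inhibitor […] (300 uM solution added) for 30 min at 37C; cAMP was read by HTRF.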
TRPV1 PAM: HTS Assay for Compounds that Act as Potentiators of the Vanilloid Receptor 1. TRPV1-expressing cells, Fluo-8 calcium influx, capsaicin EC20 potentiation; host cell line not named in the record; control for the full effect not named in the record. potentiation, % at 8.33 µM. 320,000 compounds, 0.02% hits. AID 540277, 2011; active means potentiation above 80%; inconclusive means 30% to 80%; inactive means below 30%; note: 0% is about no effect
Target sequence (Q8NER1 whole entry, looked up): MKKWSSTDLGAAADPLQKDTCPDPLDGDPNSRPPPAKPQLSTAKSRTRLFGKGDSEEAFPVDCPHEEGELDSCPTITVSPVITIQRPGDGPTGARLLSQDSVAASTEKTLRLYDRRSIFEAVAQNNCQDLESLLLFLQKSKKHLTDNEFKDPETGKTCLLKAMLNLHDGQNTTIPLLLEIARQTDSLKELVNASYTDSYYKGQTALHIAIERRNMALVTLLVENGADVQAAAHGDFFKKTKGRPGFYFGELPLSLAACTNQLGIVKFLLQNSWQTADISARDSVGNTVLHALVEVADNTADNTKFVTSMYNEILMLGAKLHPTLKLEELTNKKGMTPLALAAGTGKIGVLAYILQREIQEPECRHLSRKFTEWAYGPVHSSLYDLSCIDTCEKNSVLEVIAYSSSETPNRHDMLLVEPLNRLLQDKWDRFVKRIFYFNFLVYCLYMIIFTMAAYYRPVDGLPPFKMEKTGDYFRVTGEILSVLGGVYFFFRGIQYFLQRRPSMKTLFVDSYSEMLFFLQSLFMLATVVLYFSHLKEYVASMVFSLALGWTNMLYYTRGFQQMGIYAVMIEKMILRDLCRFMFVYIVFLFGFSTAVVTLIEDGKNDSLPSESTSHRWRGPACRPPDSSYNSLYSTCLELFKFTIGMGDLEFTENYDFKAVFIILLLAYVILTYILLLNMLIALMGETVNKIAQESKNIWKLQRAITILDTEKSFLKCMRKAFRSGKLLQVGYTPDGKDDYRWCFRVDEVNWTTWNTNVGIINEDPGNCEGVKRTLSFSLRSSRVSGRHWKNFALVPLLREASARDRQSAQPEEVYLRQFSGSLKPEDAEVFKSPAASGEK
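Fluo-8 calcium influx in TRPV1-expressing cells, kinetic read (ex 480/em 520 nm). Compound added and read 3 min for agonist activity, followed by capsaicin at EC20 final and 2 min further read for enhancement.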
Sfp inh: qHTS Assay for Inhibitors of Bacillus subtilis Sfp phosphopantetheinyl transferase (PPTase). Biochemical Sfp PPTase activity, qHTS. 310,000 compounds, 3.5% hits. AID 1490, 2009. Potency, µM, without a hit: max response, negative = inhibition, most hits filed as inhibitors. 4'-phosphopantetheinyl transferase ffp (Bacillus subtilis), Q9F4F7; active = well fitted inhibition curve with a large enough effect; inconclusive = small, poorly fitted or top-dose-only effect, or another doubt; inactive = no such curve, though single readings can be large or run the other way;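 note: the enzyme is Sfp with the accession as filed and its product quenches rhodamine fluorescence; potency is the fitted concentration of half-maximal effect; 0% = enzyme reaction without inhibitor and -100% = no enzyme wells; top concentration of the series not given in the record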
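Fluorescence-quenching assay with 15 nM Sfp, 5 uM rhodamine-CoA and 12.5 uM BHQ-2-labelled ybbR peptide in pH 7.6 Hepes/MgCl2 buffer. Enzyme was pre-incubated with compound for 15 min at room temperature. Rate was taken from the 30-min fluorescence change (525/598 nm).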
ClpP mod: qHTS Assay for Activators of ClpP; ATP-dependent Clp protease proteolytic subunit (Bacillus subtilis (strain 168)), P80244; purified B. subtilis ClpP, FRET peptide cleavage, 20 min; Potency, µM (titrated, usually from 57.5 µM), for the others: at the top dose activity change, negative = active; 340,000 compounds, 1.9% hits; AID 651965, 2013; active = well fitted falling curve with a large enough effect; inconclusive = small, poorly fitted or top-dose-only effect; inactive = no such curve, though single readings can be large or run the other way; note: potency is the fitted concentration of half-maximal effect; the source files actives as falling curves though it sought activators and does not explain the sign; nearly all actives have a fitted effect of over 65% in size; many hits overshoot -100%
Target sequence (P80244 whole entry, looked up): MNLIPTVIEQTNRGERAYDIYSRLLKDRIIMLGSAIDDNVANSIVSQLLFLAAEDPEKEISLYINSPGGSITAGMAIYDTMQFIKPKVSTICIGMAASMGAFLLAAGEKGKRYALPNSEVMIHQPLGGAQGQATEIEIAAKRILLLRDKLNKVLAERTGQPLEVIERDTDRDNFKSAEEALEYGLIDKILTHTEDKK
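Buffer: 100 mM Tris/HCl pH8, 100 mM KCl, 0.05% low protease BSA, 2.5% glycerol, 0.01% Tween-20. ClpP 10 microg/mL final; 20 min RT; delta FRET normalized to ADEP and DMSO controls.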
An asterisk follows results filed as active; ? = inconclusive; / = not tested or not shown; [ ] = another dose, or the depositor's remark.

SMILES | Menin MLL FP FL | gsp antag | D2 PAM | gsp agonist | TRPV1 PAM | Sfp inh | ClpP mod
CC(=O)Nc1ccc(S(=O)(=O)N(C)CC(=O)N2CCN(C(=O)c3ccco3)CC2)cc1 | / | 8% | -7 | -2% | / | / | /
Cc1ccc(C(=O)NCCCN2CCOCC2)c(C)c1 | -0.2 | 11% | -1 | -4%[15.4 µM] | ? | 15% | -1.3%
O=c1c2cccc(Cl)c2nc2n1Cc1ccccc1-2 | 0.9 | 11% | 4 | -4%[15.4 µM] | -6 | 14µM* | /
OC(CNCCc1ccc(Cl)cc1Cl)COc1ccccc1 (stereo not given) | 3.6 | 11% | -17 | 0%[15.4 µM] | 0 | -8% | /
COc1cc(C(=O)OCC(=O)c2c[nH]c3ccccc23)ccc1OCC(=O)N1CCOCC1 | -1.9 | -26% | -10 | -26% | 1 | 1% | -4.5%
CCn1cc(C(=O)O)c(=O)c2cnc(N3CCN(C(=S)Nc4ccccc4Cl)CC3)nc21 | 0.6 | -18% | -13 | -4% | -2 | 18% | -9.8%
Cn1c(=O)n(CC#N)c2ccccc21 | -1.9 | 7% | -11 | -35%[inhibitor] | 15 | 5% | 2.6%
CC(=O)c1cccc(OCC(=O)Nc2cc(S(=O)(=O)N3CCOCC3)ccc2N2CCCC2)c1 | / | -1% | -13 | -1% | 0 | / | -3.3%
CC1=C(C)CC(C(=O)Nc2nc(-c3ccc(C)cc3C)c(C)s2)C(C(=O)O)C1 (stereo not given) | / | -17% | 60* | -30% | 12 | 1% | -1.2%
CCc1ccc(NC(=O)CCC(=O)c2ccc(C)cc2)cc1 | -18 | -12% | 1 | 33% | 0 | 12% | /
C=COCCNC(=O)Nc1ccc(Cl)cc1Cl | -0.2 | -6% | -17 | -21% | 4 | 17% | 0.9%
CCOc1ccc(OCCOCCN2CCc3ccccc3C2)cc1 | 1.0 | 8% | -45 | 29% | -2 | 3% | -0.2%
O=C(Nc1ccccc1C(=O)OC1CCOC1=O)c1ccco1 (stereo not given) | 1.1 | 4% | -1 | 3% | 3 | 3% | -8.3%
Cn1cccc1CN1CCC[C@]2(N[C@H](c3ccccc3)[C@@H]3C(=O)N(Cc4ccccc4)C(=O)[C@@H]32)C1=O | / | / | -5 | ? | / | / | 0.1%
Cc1csc(N2CCN(c3cc4nc(-c5ccncc5)[nH]c4cc3Cl)CC2)n1 | 3.2 | -14% | -3 | 25% | -9 | 79µM* | -3.7%
O=C(O)c1cccc(C(=O)c2cccc3ccccc23)c1 | / | -12% | 12 | ? | / | / | /
COc1ccc(C2CC(c3ccc(OC)cc3)n3nc(NC(=O)c4ccco4)nc3N2)cc1 (stereo not given) | 5.8 | -21% | 19 | -13% | -3 | 14% | -26%
CCOc1ncccc1C(=O)NNC(=O)c1cccc(S(=O)(=O)N2CCOCC2)c1 | / | 18% | -8 | ? | / | / | -6.7%
Cc1csc(NC(=O)c2ccccc2O)n1 | 1.4 | -8% | -8 | 4% | 7 | 8% | 28µM*
COc1ccc(CNc2cccc(F)c2)cc1Br | 1.0 | -15% | 5 | -48%[inhibitor] | -11 | -28% | -0.5%
C[C@@H]1C=C(C(=O)N2CCN(Cc3ccccc3)CC2)O[C@H](OCc2ccc(CO)cc2)C1 | 0.7 | -3% | -8 | / | -3 | 8% | 2.2%
COc1cc(C(=O)NC(C)c2ccccc2)ccc1OCC(=O)N1CCOCC1 (stereo not given) | / | 3% | 2 | ? | 3 | / | -4.2%
CCc1nnc(NC(=O)CCC(=O)N2CCN(c3cc(C)ccc3C)CC2)s1 | -0.4 | 1% | -18 | 5% | -5 | 1% | -1.3%
O=C(NCCN1CCOCC1)Nc1ccc(Cl)cc1Cl | -0.7 | 12% | -15 | -31%[inhibitor] | 2 | 10% | -1.1%
CCN(CC(=O)NCc1ccc(Cl)cc1)Cc1cc(=O)n2ccsc2n1 | -6.9 | 14% | 5 | -3%[15.4 µM] | 4 | 16% | /
SMILES | Menin MLL FP FL | gsp antag | D2 PAM | gsp agonist | TRPV1 PAM | Sfp inh | ClpP mod
O=C(COc1ccc([N+](=O)[O-])cc1Cl)NCC1CCCO1 (stereo not given) | -5.4 | -6% | -5 | -28% | 5 | 5% | -3.5%
COc1ccc(N2C(=O)CC(C#N)=C2N)cc1 | 3.0 | 6% | 7 | 14% | 9 | 5% | /
Oc1c(C(c2ccccn2)N2CCC(Cc3ccccc3)CC2)cc(Cl)c2cccnc12 (stereo not given) | ? | 4% | -35 | 6%[15.4 µM] | -25 | ? | /
Cc1ccc(NC(=O)C2C3/C=C\CCCCC32)cc1C (stereo not given) | 3.2 | -6% | -16 | -19% | -21 | 7% | 2.0%
CN1CCC(N(C)C(=S)Nc2ccc(F)cc2)CC1 | -0.2 | 7% | -2 | -105%[inhibitor] | ? | ? | 1.5%
Cc1cccc(C)c1N1CCN(c2ccc3nnc(C(F)(F)F)n3n2)CC1 | 3.0 | 8% | -8 | -2% | -22 | 9% | 1.3%
CC1CCCCN1CC(=O)NCc1ccc2c(c1)OCO2 (stereo not given) | 2.7 | 11% | -3 | -14% | -8 | 0% | -1.3%
O=C(N/C(=C\c1cccc([N+](=O)[O-])c1)C(=O)N(CCO)CCO)c1ccco1 | 2.1 | -10% | -2 | 1%[15.4 µM] | 4 | 7% | /
CCCOc1ccccc1C1NC(=O)NC(C)=C1C(=O)OCCOC(C)C (stereo not given) | -1.7 | -5% | 1 | 26% | -8 | 2% | 1.0%
CSc1ccc(Cl)c(C(=O)NCCOc2cc(C)ccc2C(C)C)c1 | 3.3 | -7% | 1 | 2% | -6 | 9% | -1.2%
Cc1c(Cl)cccc1NC(=O)Nc1cc(C(C)(C)C)nn1C | -6.4 | -8% | -15 | 0% | 0 | 13% | /
COc1ccccc1-c1nc(S(=O)(=O)c2ccccc2)c(N2CCOCC2)o1 | / | -8% | -5 | -29% | -7 | -20% | -0.5%
Cc1ccc(NC(=O)CSc2nnc(Cc3ccccc3)o2)c(C)c1 | -7.1 | 8% | -9 | -2%[15.4 µM] | -1 | 21% | /
COC(=O)c1nn(-c2ccccc2)nc1-c1nn(-c2ccccc2)nc1C(=O)OC | -1.1 | -5% | -5 | -20% | 12 | 23% | ?
CCOc1ccc(NC(=O)Cn2nnc(-c3ccccc3NC(=O)C3CC3)n2)cc1 | 3.0 | 7% | -2 | -16% | 7 | -15% | 2.4%
O=C(CCCn1c(=O)[nH]c2ccsc2c1=O)NC1CCCCC1 | 1.7 | -2% | -1 | ? | 3 | 6% | /
Cc1cc(C(=O)CN2C(=O)C(=O)N(Cc3ccco3)C2=O)c(C)n1CCc1ccc(F)cc1 | / | -7% | 1 | -23% | 10 | / | -0.6%
NS(=O)(=O)c1ccc(CCNC(=O)c2cccc([N+](=O)[O-])c2)cc1 | 2.6 | 3% | -1 | -3% | 4 | -5% | /
CC12CN3CC(C)(CN(C1)C3c1ccccc1F)C2 (stereo not given) | 2.5 | 4% | -5 | 12% | 2 | 8% | -2.7%
N#Cc1c(F)cccc1N1CCC(C#N)CC1 | -0.7 | 7% | -4 | -4%[15.4 µM] | 2 | 8% | -1.2%
CN1CCN(c2nc(-c3ccc(Br)cc3)nnc2-c2ccccc2)CC1 | 2.1 | -18% | -5 | 3% | / | ? | -0.6%
Cc1ccc(S(=O)(=O)NC(C(=O)N2CCOCCOCCOCC2)C(C)C)cc1 (stereo not given) | 3.0 | 8% | 10 | 10%[15.4 µM] | -11 | 11% | /
O=[N+]([O-])c1c(NCCO)cc(N2CCCCCC2)c2nonc12 | 0.5 | -14% | -9 | 5% | -6 | -1% | 1.3%
CC(C)CN(C(=O)CCCSc1nc2ccccc2[nH]1)c1c(N)n(Cc2ccccc2)c(=O)[nH]c1=O | / | 9% | -18 | 5%[15.4 µM] | -10 | / | -22%
CC(=O)c1ccc(NS(=O)(=O)c2cccc3cccnc23)cc1 | / | / | -19 | -61%[inhibitor] | / | / | -0.2%
CN(C)C(=S)N=c1ssc(=S)n1Cc1ccccc1 | / | 11% | -30 | 0% | / | / | -1.7%

8 compounds out of the list, sorted by heavy-atom count, lowest first.
SMILES | Menin MLL FP FL | gsp antag | D2 PAM | gsp agonist | TRPV1 PAM | Sfp inh | ClpP mod
N#Cc1c(F)cccc1N1CCC(C#N)CC1 | -0.7 | 7% | -4 | -4%[15.4 µM] | 2 | 8% | -1.2%
CC12CN3CC(C)(CN(C1)C3c1ccccc1F)C2 (stereo not given) | 2.5 | 4% | -5 | 12% | 2 | 8% | -2.7%
Cc1ccc(NC(=O)C2C3/C=C\CCCCC32)cc1C (stereo not given) | 3.2 | -6% | -16 | -19% | -21 | 7% | 2.0%
O=C(CCCn1c(=O)[nH]c2ccsc2c1=O)NC1CCCCC1 | 1.7 | -2% | -1 | ? | 3 | 6% | /
NS(=O)(=O)c1ccc(CCNC(=O)c2cccc([N+](=O)[O-])c2)cc1 | 2.6 | 3% | -1 | -3% | 4 | -5% | /
COC(=O)c1nn(-c2ccccc2)nc1-c1nn(-c2ccccc2)nc1C(=O)OC | -1.1 | -5% | -5 | -20% | 12 | 23% | ?
Cc1cc(C(=O)CN2C(=O)C(=O)N(Cc3ccco3)C2=O)c(C)n1CCc1ccc(F)cc1 | / | -7% | 1 | -23% | 10 | / | -0.6%
CC(C)CN(C(=O)CCCSc1nc2ccccc2[nH]1)c1c(N)n(Cc2ccccc2)c(=O)[nH]c1=O | / | 9% | -18 | 5%[15.4 µM] | -10 | / | -22%

Screens as filed in PubChem.
